Screens deposited in PubChem by National Center for Advancing Translational Sciences (NCATS).
GLA inh pH 4.5: qHTS Assay for Inhibitors of Human alpha-Galactosidase at pH 4.5; 230,000 tested, under 10 active; activity change, negative = inhibition, % at 105 µM; purified enzyme, 4-MU-alpha-Gal fluorescence, pH 4.5; inconclusive = small, poorly fitted or top-dose-only inhibition, or a rising curve; inactive = flat fitted curve, though single readings scatter; no compound was filed as active;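 further: 0% = full activity with enzyme and -100% = basal without enzyme; dose as in the result columns while the protocol names 77 µM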
Target sequence (P06280 whole entry, looked up): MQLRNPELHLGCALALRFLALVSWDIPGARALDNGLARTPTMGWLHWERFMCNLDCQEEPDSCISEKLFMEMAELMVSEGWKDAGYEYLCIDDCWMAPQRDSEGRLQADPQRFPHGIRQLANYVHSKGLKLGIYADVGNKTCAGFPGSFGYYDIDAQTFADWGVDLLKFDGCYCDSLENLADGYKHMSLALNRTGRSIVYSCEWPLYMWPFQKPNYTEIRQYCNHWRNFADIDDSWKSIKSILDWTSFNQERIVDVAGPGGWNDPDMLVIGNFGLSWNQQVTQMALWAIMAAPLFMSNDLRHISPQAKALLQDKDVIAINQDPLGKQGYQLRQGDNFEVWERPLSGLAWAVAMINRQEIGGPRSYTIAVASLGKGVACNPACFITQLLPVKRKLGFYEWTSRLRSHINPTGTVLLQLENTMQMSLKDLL
Rango complex inh: qHTS Assay for Inhibitors of Rango (Ran-regulated importin-beta cargo) - Importin beta complex formation. Importin subunit beta-1 (Homo sapiens), Q14974. Rango CFP/YFP FRET sensor + importin beta, 45 min. Potency, µM (highest dose often 92.2 µM), for inactives: top-dose inhibition of complex formation. hit rate 0.031% among 340,000. AID 540263, 2011; active = rising FRET ratio curve, often small or poorly fitted; inconclusive = mostly compound fluorescence or quenching in the first reads; inactive = flat curves in all reads;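 further: potency means the concentration at half of the fitted maximal effect; 0% = DMSO wells and 100% = buffer wells lacking importin beta; nearly all actives have a fitted effect of over 15% in size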
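FRET biosensor Rango (snurportin 1 IBB between N-terminal EYFP and C-terminal Cerulean), 50 nM in PBS/1 mM DTT/0.02% Tween-20/0.1% BSA, preincubated 5 min RT with compound; 0.125 microM importin beta added, 45 min RT, CFP/YFP FRET ratio read.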
Rango release inh: qHTS Assay for Inhibitors of RanGTP induced Rango (Ran-regulated importin-beta cargo) - Importin beta complex dissociation. Biochemical FRET Rango-importin beta, RanGTP-induced dissociation. Potency, µM (titrated, usually from 46.1 µM), inactives show at the top dose activity change, negative = inhibition. hit rate 0.071% among 340,000. AID 540253, 2011; active means falling FRET ratio curve, often poorly fitted, with flat reads before Ran was added; inconclusive means other falling curves, or compound fluorescence or quenching; inactive means flat or rising ratio curve;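 further: potency means the concentration at half of the fitted maximal effect; % of control where 0% means no effect; nearly all actives have a fitted effect of over 45% in size; -100% = wells without RanGTP and RCC1; the record marks most hits as doubtful in a second field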
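Rango/importin beta premix (0.1/0.25 uM final), PBS + 1 mM DTT + 0.02% Tween-20 + 0.1% BSA; cpd 5 min RT; FRET pre-read; + RanGTP-RCC1 (0.6 uM Ran, 2 mM GTP, 0.2 uM RCC1); 45 min RT; FRET post-read, ex 430, em 486/530 nm.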
miR-21 reporter: qHTS Assay for Modulators of miRNAs and/orActivators of miR-21; Potency, µM (top dose mostly 38.3 µM), without a hit: at the highest dose reporter change, positive = more light; AID 2288, 2010; HeLa miR-21 FLuc reporter, luciferase, 48 h; 340,000 tested, under 10 active; active = well fitted rising curve with a large enough effect; inconclusive = small, poorly fitted or top-dose-only effect; inactive = no such curve, though single readings can be large or run the other way;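 further: % of control where 0% means no effect; miR-21 action dims this reporter so a rising signal means less miR-21 action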
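HeLa cells stably expressing CMV-driven firefly luciferase with a downstream miR-21 binding sequence, endogenously expressing miR-21, were treated with titrations (up to about 40uM final) for 48 hours at 37 degree Celsius. Luciferase luminescence was read after lysis.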
The depositor's hits bear a star; ? = inconclusive; / = no result given; & = joins results of further samples; [ ] = dose if it differs, or a comment. These rows are one share of the data (hit frequency here may not be typical).

Values run as follows: GLA inh pH 4.5	Rango complex inh	Rango release inh	miR-21 reporter
CCN1CCCC1CNC(=O)C1CCCN(S(=O)(=O)c2cccc3nsnc23)C1 (stereo not given)
  1	-0.9%	-8%	-3%
C/C(=N\NC(=O)c1cccc(S(=O)(=O)N2CCCC2)c1)c1ccc(OCC(=O)N(C)C)cc1
  /	-0.1%	?	/
COc1cc(/C=N/NC(=O)c2cccnc2)ccc1OC(=O)c1cccc(Br)c1
  /	-2.3%	-7%	0%
O=c1cc(Cl)c(-c2ccccc2)n[nH]1
  2	2.3%	3%	2%
O=C(O)Cc1ccc(O)c(F)c1
  3	-0.1%	14%	-3%
C[C@@H]1C=C(C(=O)N2CCOCC2)O[C@H](OCc2ccc(CO)cc2)C1
  1	0.4%	-11%	0%
Cc1ccc(-c2nn(-c3ccccc3)cc2/C=N/NC(=O)c2ccncc2)o1
  3	-2.1%	-10%	-2%
CCOc1ccccc1NC(=O)CCSc1nc2n[nH]c(C)c2c(=N)n1-c1ccccc1Cl
  -2	0.9%	-18%	-7%
N/C(=C/C(=O)c1ccccc1O)C(F)(F)F
  -8	-0.8%	0%	-8%
Cc1ccc(NC(=O)Cn2nc(C)c([N+](=O)[O-])c2C)cc1C
  8	-0.8%	0%	3%
COc1ccc(-c2ccoc2)cc1[C@H]1[C@H]2C=CC[C@@H](C)[C@@H]2C(=O)N1Cc1ccccc1
  -7	-0.4%	-12%	23%
O=C(O)CSc1nnc(SCc2cccc3ccccc23)s1
  5	-1.2%	1%	-1%
CCOC(=O)N1CCC(N2C(=O)c3ccc(C(=O)NCCOC)cc3C2=O)CC1
  /	-0.3%	-3%	-2%
CCn1ccnc1CN(C)Cc1nc(CCC(C)C)no1
  -1	-0.9%	4%	-14%
COC(=O)c1c(NC(=O)CN(c2ccccc2)S(C)(=O)=O)sc2c1CCCC2
  -7	-1.5%	4%	-4%
N#C/C(=N\Nc1cccc(F)c1)C(=O)C1CC1
  -6	-1.7%	-6%	-17%
Cc1c(Cl)cccc1NC(=O)CCCN1C(=O)c2cccnc2C1=O
  -1	-2.0%	11%	-2%
CC(=O)Nc1c(-c2ccccc2)c2cc(Br)ccc2[nH]c1=O
  /	-1.3%	17%	3%
O=S(=O)(NCCc1nnc2ccc(SCc3cccnc3)nn12)c1ccccc1
  0[21.1 µM]	-0.6%	0%	0%
Cc1ccc(SCC(=O)Nc2ccc(N3CCN(C)CC3)c(F)c2)c(C)c1
  1	-3.7%	1%	-29%
COc1cc2c(cc1OC)C(C)N(C(=O)CCc1c[nH]c3ccccc13)CC2 (stereo not given)
  /	-6.6%	-7%	11%
COc1cc(C2C(C#N)=C(N)OC3=C2C(=O)CC(C)(C)C3)cc([N+](=O)[O-])c1O (stereo not given)
  -5	-1.1%	-1%	-1%
CCOc1nc(NC(=O)NC(=O)c2ccccc2)nc(-c2ccccc2)n1
  3	3.9%	33%	-1%
Cc1cccc(N=C2NN=C(c3c(C)[nH]c4ccccc34)CS2)c1
  9	-1.2%	-9%	?
CC(NC(=O)Cc1ccc(F)cc1)C(c1cccs1)N1CCN(C)CC1 (stereo not given)
  -4	-7.2%	-8%	-8%
CC(=NCc1ccco1)c1c(C)[nH]n(-c2nc3ccccc3s2)c1=O
  -8	2.3%	-2%	-26%
O=c1[nH]c(COc2ccc(Cl)cc2Br)nc2ccccc12
  /	-3.3%	12%	-69%
O=C(COc1ccc2c(-c3ccccc3)cc(=O)oc2c1)Nc1ccc(CCO)cc1
  /	-3.5%	-21%	14%
C/C(=N/OCC(=O)Nc1ccccc1)c1cccs1
  9	0.8%	11%	-50%
CCOC(=O)[C@H]1[C@H]2COc3ccc(Cl)cc3[C@@H]2N2C(=O)CN(Cc3ccco3)C(=O)[C@@]12C
  /	0.8%	-10%	/
c1sc2[n+](c1C13CC4CC(CC(C4)C1)C3)CCS2
  7	5.2%	-12%	14%
CCCCC1=CC2=CC(=O)C(C)(OC(=O)CC)C(=O)C2=CN1CCCOC(C)C (stereo not given)
  4&-4	?	?	-7%
CCc1cccc(NC(=O)COc2ccccc2)c1
  2	-0.1%	26%	-41%
COc1cccc(C(=O)CSc2nnnn2C2CCCCC2)c1
  -5	7.2%	12%	-41%
Cc1ccccc1C(=O)NC1CCN(CC(=O)Nc2ccc3c(c2)OCCO3)CC1
  5	-2.2%	-6%	-1%
Cc1ccccc1C(=O)Nc1nnc(SCC(=O)NCc2ccco2)s1
  /	3.2%	5%	-21%
CN(C)C(=S)Nc1ccc(S(=O)(=O)N2CCCCC2)cc1
  -2	4.3%	6%	-14%
O=c1[nH]c(CN2CCN(c3ccccc3)CC2)nc2ccccc12
  4	1.2%	15%	-7%
CCCC[C@@H]1CNC(=S)N1CC1CCCCC1
  -10	3.0%	-3%	23%
COC(=O)CSc1nc(-c2ccc(C)cc2)c2c(c1C#N)CCCC2
  -4	?	-18%	-3%
Cc1cccc(N2CCN(C(=O)c3ccc4nccnc4c3)CC2C)c1 (stereo not given)
  /	-0.9%	-6%	/
CCOC(=O)CC(NC(=O)c1cccs1)c1ccc(OCC)cc1 (stereo not given)
  5	3.6%	1%	0%
OCCC1CN(Cc2cccn2-c2cccnc2)CCN1C1CCCCC1 (stereo not given)
  2	2.7%	2%	-1%
O=C(Cn1cnnn1)Nc1ccccc1Cc1ccccc1
  -6	1.3%	-13%	-4%
COc1cc(-c2cccs2)cc(=O)c2c(C)oc(C)c12
  /	?	?	-5%
CCCCCCCCCC(=O)N/N=C(\C)c1cccnc1
  3	0.9%	-1%	-4%
Cc1ccc(S(=O)(=O)Nc2ccc(C(=O)NCCCN3CCOCC3)cc2)cc1[N+](=O)[O-]
  /	1.5%	-8%	/
NS(=O)(=O)c1ccccc1
  -5	-2.1%	-3%	0%
CSc1nc(C)c2cc(C)oc2n1
  -7	0.5%	-21%	-2%
Cc1ccc(-c2nnc(Nc3ccc(C(=O)N(C)C)cc3)c3ccccc23)cc1S(=O)(=O)NCC1CCCO1 (stereo not given)
  -2	0.7%	3%	-8%
O=C(C1CC2C=CC1C2)N1CCN(c2ccccc2)CC1 (stereo not given)
  3	-1.0%	-7%	-4%
C=CCOC1=CS(=O)(=O)N(Cc2ccc(Br)cc2)c2ccc(Br)cc21
  /	2.5%	1%	/
NS(=O)(=O)c1cc(Cl)c(NC(=O)COC(=O)c2ccccn2)c(Cl)c1
  /	-3.6%	-11%	/
CC(C)C(NC(=O)c1ccccc1)C(=O)NCC(c1ccccc1)N(C)C (stereo not given)
  6	-0.5%	-10%	3%
CCCN(C(=O)CSc1ccccc1C(=O)O)C1CCS(=O)(=O)C1 (stereo not given)
  /	4.9%	8%	/
CCCCN(CCCNC(=O)C1CCN(S(=O)(=O)CC)CC1)c1ccccc1
  4	0.6%	-17%	-7%
CC1(C)CC(n2c(=S)[nH]c3ccccc3c2=O)CCO1 (stereo not given)
  7	5.6%	2%	-10%
O=[N+]([O-])c1ccc(OCCN2CCNCC2)cc1
  4	-1.0%	-5%	1%
Cn1nnnc1NC(=O)c1ccccc1Cl
  /	-0.5%	-2%	0%
COc1cc(C=O)ccc1OCCOCCOc1c(C)cc(Cl)cc1Cl
  /	2.8%	-14%	-6%

Continued:
Values run as follows: GLA inh pH 4.5	Rango complex inh	Rango release inh	miR-21 reporter
O=S(=O)(c1cccs1)N1CCC(CO)(Cc2cccc(F)c2)CC1
  6	1.3%	0%	-5%
COc1ccc(-c2ncc3ccccn23)cc1OC
  -3	-6.3%	-4%	-33%
Cc1ccc(C)c(NC(=S)N2CCN(Cc3ccccc3)CC2)c1
  3	0.9%	2%	-8%
COc1ccc(N2CCN(C(=O)C(Cc3ccccc3)n3cccc3)CC2)cc1 (stereo not given)
  0	0.3%	7%	8%
COc1ccc(-c2nnc(SCC(=O)N3CCC(Cc4ccccc4)CC3)o2)cc1OC
  -8	1.7%	3%	1%
CCOc1cccc2cc(C(=O)N3CC(C)OC(C)C3)c(=O)oc12 (stereo not given)
  /	-1.6%	6%	3%
CN(C)CCCOC(=O)COc1ccc(Br)cc1
  -6	0.5%	14%	5%
CC(C)CN1C(=O)c2ccc(C(=O)Nc3nccs3)cc2C1=O
  2	-0.6%	-20%	-8%
CC(=O)Nc1ccc(/C=N/NC(=O)c2cccs2)cc1
  9	5.2%	1%	-64%
CCC(=O)Nc1ccc(/C(C)=N\NC(=O)c2ccc(C)s2)cc1
  -4	2.0%	-1%	-11%
CCN1CCCc2cc(CN(CCN3CCOCC3)C(=S)Nc3cccc(Cl)c3)ccc21
  -14	2.5%	-5%	10%
CC1CCN(S(=O)(=O)CCNC(=O)c2ccccc2)CC1
  /	1.1%	-2%	/
COCCCNCC(=O)Nc1ccc(OC(F)(F)F)cc1
  4	-3.4%	-5%	-2%
COc1ccc(OC)c2sc(N3CCN(C(=O)c4ccc([N+](=O)[O-])s4)CC3)nc12
  /	-0.4%	-2%	/
O=C(Nc1nc(-c2cccc([N+](=O)[O-])c2)cs1)c1cccc([N+](=O)[O-])c1C(=O)O
  -11	3.1%	3%	-4%
Cc1ccc(C)c(N2CCN(C(=O)CN3C(=O)c4ccccc4C3=O)CC2)c1
  -9	-3.9%	7%	-2%
O=C(C1CC=CCC1)N1CCN(C(=O)C2CC=CCC2)CC1 (stereo not given)
  3	-2.0%	19%	0%
COC(=O)c1ccc2[nH]c(C)c(CN3CCCC3)c(=O)c2c1
  17	-4.2%	11%	-1%
COc1ccc2nc(NC(=O)CSc3nnc(C)s3)sc2c1
  4	-7.2%	-3%	-17%
COc1ccccc1N1CCN(C(=S)Nc2ccc(F)cc2)CC1
  /	-0.9%	0%	1%
Cc1nc(NC(=O)c2cc3c(C)nn(-c4ccccc4)c3s2)sc1C(=O)Nc1ccccc1
  3	-3.6%	-18%	-6%
CCOc1ccccc1N1CCN(C(=S)NC(=O)C23CC4CC(CC(C4)C2)C3)CC1
  -15	-1.6%	7%	-7%
Fc1ccc(-c2cnn3c(-c4ccncc4)ccnc23)cc1
  -14	0.0%	-1%	-54%
O=S(=O)(c1ccc(-n2cnnn2)cc1)N1CCN(c2ccccc2F)CC1
  /	2.7%	29%	3%&4%
Cc1ccc(NC(=S)N2CCC(NC(=O)c3ccccc3)CC2)cc1
  /	?	21%	5%

Quoted at random: seven entries already listed, in no set order.
Values run as follows: GLA inh pH 4.5	Rango complex inh	Rango release inh	miR-21 reporter
Cc1ccc(C)c(NC(=S)N2CCN(Cc3ccccc3)CC2)c1
  3	0.9%	2%	-8%
COc1ccc2nc(NC(=O)CSc3nnc(C)s3)sc2c1
  4	-7.2%	-3%	-17%
CCN1CCCc2cc(CN(CCN3CCOCC3)C(=S)Nc3cccc(Cl)c3)ccc21
  -14	2.5%	-5%	10%
O=S(=O)(c1cccs1)N1CCC(CO)(Cc2cccc(F)c2)CC1
  6	1.3%	0%	-5%
Cc1ccc(NC(=S)N2CCC(NC(=O)c3ccccc3)CC2)cc1
  /	?	21%	5%
Cc1nc(NC(=O)c2cc3c(C)nn(-c4ccccc4)c3s2)sc1C(=O)Nc1ccccc1
  3	-3.6%	-18%	-6%
COc1ccc(OC)c2sc(N3CCN(C(=O)c4ccc([N+](=O)[O-])s4)CC3)nc12
  /	-0.4%	-2%	/

Part of the list above in order of SMILES length, descending.
Values run as follows: GLA inh pH 4.5	Rango complex inh	Rango release inh	miR-21 reporter
NS(=O)(=O)c1cc(Cl)c(NC(=O)COC(=O)c2ccccn2)c(Cl)c1
  /	-3.6%	-11%	/
CCOC(=O)CC(NC(=O)c1cccs1)c1ccc(OCC)cc1 (stereo not given)
  5	3.6%	1%	0%
CN(C)CCCOC(=O)COc1ccc(Br)cc1
  -6	0.5%	14%	5%
